# High-throughput results deposited in PubChem by National Center for Advancing Translational Sciences (NCATS).
# ClpP mod = qHTS Assay for Activators of ClpP. ATP-dependent Clp protease proteolytic subunit (Bacillus subtilis (strain 168)), P80244. purified B. subtilis ClpP, FRET peptide cleavage, 20 min. 340,000 compounds, 1.9% hits. Potency, µM (titrated, usually from 57.5 µM), for the others: at the highest dose activity change, negative = active; active = well fitted falling curve with a large enough effect; inconclusive = small, poorly fitted or top-dose-only effect; inactive = no such curve, though single readings can be large or run the other way; note: the source files actives as falling curves though it sought activators and does not explain the sign; nearly all actives have a fitted effect of over 65% in size; many hits overshoot -100%
# Target sequence (P80244 whole entry, looked up): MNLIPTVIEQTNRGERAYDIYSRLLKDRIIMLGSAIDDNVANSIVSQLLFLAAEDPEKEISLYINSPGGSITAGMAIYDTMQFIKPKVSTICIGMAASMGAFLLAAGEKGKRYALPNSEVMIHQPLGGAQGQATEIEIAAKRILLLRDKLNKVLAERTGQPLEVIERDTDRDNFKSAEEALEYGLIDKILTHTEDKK
#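 Purified B. subtilis ClpP, 10 microg/mL final in Tris/HCl pH8 with KCl, BSA, glycerol and Tween-20, cleaved an Abz/nitrotyrosine-quenched decapeptide. Fluorescence (ex 320, em 430) was read at 0 and 20 min at room temperature. Delta was normalized to 5.8 microM ADEP and DMSO/no-enzyme controls.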
# Numbers without * were called inactive; ? = inconclusive. Potency is the fitted concentration of half-maximal effect.
SMILES,ClpP mod
O=C(Cn1c(=O)n(-c2ccccc2)c(=O)c2c3c(sc21)CCCC3)Nc1ccc(F)cc1,-1.1%
Cc1cc(NC(=O)Cn2nc(C)n3cccc3c2=O)ccc1Br,-1.8%
Cc1ccc(NC(=O)c2c(NC(=O)C(F)(F)F)sc3c2CCCCC3)cc1,-3.1%
Cc1ccc(S(=O)(=O)c2nc(-c3ccco3)oc2SC(C)c2ccccc2)cc1 (stereo unspecified),-3.2%
Cc1ccc(CN(Cc2ccco2)C(=O)c2oc3c(C)c(C)ccc3c2C)cc1,-1.5%
Cc1ccc(-n2ncc(C(=O)NCCN3CCC(Cc4ccccc4)CC3)c2C2CCN(C(=O)OC(C)(C)C)CC2)cc1,-1.9%
CCOC(=O)c1ccc(NC(=O)Cn2nc(SC)c(S(=O)(=O)c3ccc(Cl)cc3)c2N)cc1,-5.8%
CCOc1ccccc1NC(=O)c1ccc2c(c1)CCCN2S(C)(=O)=O,0.6%
O=c1c2cnn(-c3ccc(F)cc3)c2ncn1Cc1cccc(Cl)c1,0.2%
CCOc1ccc(NC(=O)Cn2c(=O)n(-c3ccccc3)c(=O)c3c4c(sc32)CCCC4)cc1,-3.6%
CCC(CC)c1nn2c(=O)cc(COc3ccc(NC(=O)c4cccc(C)c4)cc3)nc2s1,-13.6%
Cc1c(C(=O)OCc2ccccc2)[nH]c2c1C(=O)CC(c1ccc(Cl)cc1)C2 (stereo unspecified),2.4%
Cc1ccc(S(=O)(=O)N2CCCc3cc(NS(=O)(=O)c4ccc(C)c(C)c4)ccc32)cc1,-1.0%
CCN(CC)c1nc(C#N)nc(N2CCOCC2)n1,1.2%
CCOC(=O)c1sc2ncn(CC(=O)Nc3ccc(OCC)cc3)c(=O)c2c1C,-8.9%
Cc1ccc(S(=O)(=O)N(CCc2ccccc2)CC(=O)Nc2ccc(Br)cc2)cc1,0.9%
Cc1cn2c(=O)cc(COc3ccccc3NC(=O)c3ccc(C(C)(C)C)cc3)nc2s1,-2.0%
O=C(Nc1ncc(Cc2ccc(Cl)cc2)s1)c1ccc2c(c1)CC(c1ccccc1)OC2=O (stereo unspecified),2.1%
COc1ccccc1CNC(=O)c1ccc(N2CCCC2)c(NC(=O)NCc2ccc(F)cc2)c1,-7.4%
COc1ccc(CNC(=O)c2ccc(NC(=O)N3CCCCc4ccccc43)cc2)c(OC)c1,-5.9%
Cc1cccc(C)c1OCc1nc2c3cnn(-c4cccc(F)c4)c3ncn2n1,-14.4%
COc1ccccc1Nc1c2c(nc3ccc(NC(=O)c4cccc(OC)c4OC)cc13)CCCC2,-17.2%
CNC(=O)C1CCC(Cn2c(=O)[nH]c3ccsc3c2=O)CC1 (stereo unspecified),-0.9%
O=[N+]([O-])c1cc(-c2nc(-c3ccncc3)no2)ccc1NCc1ccccc1,0.6%
COc1ccc(CNc2nc(-c3ccco3)nn2S(=O)(=O)c2ccc(Cl)cc2)cc1OC,-0.5%
Cc1ccc(S(=O)(=O)c2nc(-c3ccc(F)cc3)oc2N2CCN(c3ccccc3)CC2)cc1,-23.9%
CC(C)(C)C(=O)Nc1ccc(-c2nc3ccc(NC(=O)C(C)(C)C)cc3[nH]2)cc1,4.3%
CCCOc1ccc(C(=O)N2CCC(c3nc4ccccc4s3)CC2)cc1,-2.1%
N=C(N)SCc1cccc2c(=O)cc(-c3ccccc3)oc12,-3.6%
Cc1ccc2c(=O)c(C(=O)c3ccccc3)cn(CC(=O)Nc3ccc4c(c3)OCCO4)c2n1,-0.1%

# Filtered by structure, the entries above with a thiophene ring, fused or not
SMILES,ClpP mod
O=C(Cn1c(=O)n(-c2ccccc2)c(=O)c2c3c(sc21)CCCC3)Nc1ccc(F)cc1,-1.1%
Cc1ccc(NC(=O)c2c(NC(=O)C(F)(F)F)sc3c2CCCCC3)cc1,-3.1%
CCOc1ccc(NC(=O)Cn2c(=O)n(-c3ccccc3)c(=O)c3c4c(sc32)CCCC4)cc1,-3.6%
CCOC(=O)c1sc2ncn(CC(=O)Nc3ccc(OCC)cc3)c(=O)c2c1C,-8.9%
CNC(=O)C1CCC(Cn2c(=O)[nH]c3ccsc3c2=O)CC1 (stereo unspecified),-0.9%

# (next part)
SMILES,ClpP mod
O=c1oc2ccccc2c(N2CCN(c3ccccc3F)CC2)c1CN1CCCC1,-0.8%
COc1cccc(CN2C(=O)c3ccccc3Sc3ccc(C(=O)NCCc4ccc(C)cc4)cc32)c1,-4.8%
Cc1ccc(C)c(N2CCN(c3ncnc4c3nc3n4CCCCC3)CC2)c1,-1.1%
CCOc1ccccc1NC(=O)CSc1nnc2[nH]c(=O)cc(C)n12,-4.7%
COc1cc(Cl)c(C)cc1NC(=O)Cn1ncc2c1-c1cc(C)ccc1OC2,-2.3%
COc1ccc(CCCc2nnc(SCC(=O)Nc3ccc(C)cc3C)o2)cc1,-0.4%
O=S(=O)(Nc1cccc(C(F)(F)F)c1)c1ccc(NS(=O)(=O)c2ccc3c(c2)OCCO3)cc1,0.3%
CCCCN(C)CCCNC(=O)Cn1ncc2c3ccccc3n(Cc3ccccc3)c2c1=O,?
Cc1ccccc1NC(=O)CSc1nnc(-c2cccs2)o1,-23.9%
Cc1ccc2nc(/C(C#N)=C/c3ccc(-c4cccc(Cl)c4)o3)[nH]c2c1,-1.1%
Cc1ccc(C)c(C(=O)C[n+]2cccc(Br)c2)c1,-0.4%
O=C(c1ccc2c(c1)N(Cc1ccc(F)cc1)C(=O)c1ccccc1S2=O)N1CCC(Cc2ccccc2)CC1 (stereo unspecified),0.8%
CCc1ccc(CNC(=O)c2ccc(Cn3c(=O)c4cccn4c4cccnc43)cc2)cc1,15.3%
CCCCN(CC)C(=O)Cn1cc2c(n1)-c1c(oc(C(=O)N3CCCC3)c1C)CC2,-0.6%
CCC1CN(C(=O)N2CCC(C(=O)NCc3cc(OC)ccc3OC)CC2)c2ccccc2O1 (stereo unspecified),0.4%
CC(NC(=O)Cn1c(=O)oc2cc(S(=O)(=O)NCc3ccccc3)ccc21)c1ccccc1 (stereo unspecified),-0.2%
CCc1sc(-c2cc3cccc(OC)c3oc2=O)nc1-c1cc(C)ccc1C,4.0%
CCCCNc1nc2ccccc2c2nc(-c3ccccc3)nn12,?
CCCOc1ccc(CNC(=O)CCCn2ncn3c(cc4sc(CC)cc43)c2=O)cc1,-5.0%
COc1ccc(CN2C(=O)C(NC(=O)c3cccc(C)c3)(C(F)(F)F)N=C2c2ccccc2)cc1 (stereo unspecified),0.9%
CC1=C(c2ccc(F)cc2)S(=O)(=O)N=C1N1CCC(C(=O)NCCc2ccco2)CC1,-1.7%
CCC(C(=O)N1CCN(c2ccccc2F)CC1)n1nc(C)c2sc3ccccc3c2c1=O (stereo unspecified),-2.6%
Cc1cc(C)cc(NC2=CC(c3cccc(F)c3)N(c3cc(C)cc(C)c3)C2=O)c1 (stereo unspecified),-3.3%
CCCCN(CCCC)c1nc(-c2ccccc2)nc2ccccc12,?
Cc1ccccc1CNC(=O)C1CCCN(c2nnc(-n3c(C)ccc3C)s2)C1 (stereo unspecified),-14.3%
Cc1ccc(Cn2c(C(=O)O)c(CNCc3ccccc3Cl)c3ccc(C)cc32)cc1,-8.0%
CCc1ccc(NC(=O)C(=O)NCC(c2cccnc2)N2CCN(Cc3ccccc3)CC2)cc1 (stereo unspecified),-3.5%
COc1ccc(Cn2cc(S(=O)(=O)c3ccc(C)cc3)c(=O)c3cc(F)ccc32)cc1,0.1%
COc1ccc(CN2COc3ccc4c(oc(=O)c5ccccc54)c3C2)cc1OC,-6.8%
CCc1ccc(Cc2cnc(NC(=O)c3ccc4c(c3)CC(c3ccccc3)OC4=O)s2)cc1 (stereo unspecified),-3.3%
CCc1ccccc1NC(=O)N(C)CCc1c(C)nn(C)c1C,-0.4%
COc1ccccc1OCCCCn1c(-c2ccc(Cl)cc2)nc2ccccc2c1=O,-6.6%
COc1ccc(CNC(=O)C2=CC(c3cccc(OC)c3)=NS(=O)(=O)N2C)cc1,-3.0%
CCCC(=O)Nc1nc2c(s1)CC(C(C)(C)C)CC2 (stereo unspecified),1.1%
O=C(CSC1=Nc2ccccc2C2=NC(Cc3ccccc3)C(=O)N12)Nc1ccccc1C(F)(F)F (stereo unspecified),3.6%
COc1ccc2c(c1)c1c(c(=O)n(Cc3ccccc3)c(=O)n1Cc1ccccc1)n2C,?
Cc1c(-c2ccc(Cl)cc2)c(=O)oc2c(CN3CCOCC3)c(O)ccc12,4.0%
O=C(Cn1cc(S(=O)(=O)Cc2ccccc2F)c2ccccc21)Nc1ccc(F)c(Cl)c1,-4.3%
Cn1c(=O)n(CCCc2ccccc2)c(=O)c2c1nc1n2CCN1c1ccc(F)cc1,-17.3%
COC(=O)c1cc2oc3ccccc3c2n1Cc1ccccc1Cl,4.3%
COc1ccccc1CNC(=O)c1cc2c(-c3ccc(Cl)cc3)nn(C)c2s1,?
CN(C)c1ccc(/C=C/c2sc3ccccc3[n+]2CCCCI)cc1,1.3%
COc1ccc(CCNC(=O)C(C)n2nc(C)c3sc4ccccc4c3c2=O)cc1OC (stereo unspecified),-12.5%
O=C(Nc1ccc(F)cc1F)c1cc2nc(-c3ccco3)cc(C(F)(F)Cl)n2n1,-4.9%
COc1ccc(NC(=O)c2nn(C)c3c2CS(=O)(=O)c2ccccc2-3)cc1Cl,-9.6%

# Look-ups from the entries so far:
# Result of CCc1ccc(NC(=O)C(=O)NCC(c2cccnc2)N2CCN(Cc3ccccc3)CC2)cc1 (stereo unspecified) in ClpP mod: -3.5%
# Result of O=c1oc2ccccc2c(N2CCN(c3ccccc3F)CC2)c1CN1CCCC1 in ClpP mod: -0.8%
# Result of Cc1cn2c(=O)cc(COc3ccccc3NC(=O)c3ccc(C(C)(C)C)cc3)nc2s1 in ClpP mod: -2.0%

# Further entries:
SMILES,ClpP mod
CCOc1ccc2c(c1)c(=O)c(S(=O)(=O)c1ccc(CC)cc1)cn2Cc1cccc(Cl)c1,-21.6%
Nc1ccc2oc(-c3ccccc3Br)nc2c1,0.1%
CCOc1ccc(S(=O)(=O)Nc2cccc(-c3ccc(N4CCCC4)nn3)c2)cc1,-15.0%
CCOc1ccc(OC(=O)c2c(-c3ccccc3Cl)noc2C)cc1,1.1%
Cc1ccc(CNc2nc3nc(C)c(Cl)c(C)n3n2)cc1,4.3%
Cc1ccc(C)c(N2CCN(C(=O)CN3CCSc4ccc(S(=O)(=O)N(C)C)cc43)CC2)c1,?
COc1ccc2c(Sc3ccccc3)c(C(=O)NCc3cc(Br)ccc3OC)[nH]c2c1,?
COc1ccc(OCCSc2nc3ccccc3n2CC(=O)N2CCOCC2)cc1,-1.0%
CSc1ccc(/C=C2\C=Cc3cc([N+](=O)[O-])ccc32)cc1,1.4%
CC(=O)Nc1ccccc1-c1nc2ccccc2n(C(C)C(=O)Nc2cc(Cl)ccc2C)c1=O (stereo unspecified),-5.7%
Cc1cc(Cl)ccc1Nc1nc(NCc2ccco2)nc2nccnc12,0.0%
CCOC(=O)c1sc(NC(=O)c2nc(SCC)ncc2Cl)c(C(=O)OCC)c1C,1.4%
O=C(CSc1nccn1-c1ccc(F)cc1)Nc1ccc(OC(F)(F)F)cc1,-0.3%
Cc1ccc(F)cc1NC(=O)CSc1nc(-c2cccs2)cc(C(F)(F)F)n1,-11.5%
Cc1ccc(N(CC(C)C)S(=O)(=O)c2nnc(NC(=O)C(C)C)s2)cc1,1.2%
Cc1ccccc1-c1nc2cc(NC(=O)c3cccc(OCCC(C)C)c3)ccc2o1,3.7%
CC(C)c1cnc2c(c1SCC(=O)c1ccc(Cl)cc1)c(=O)n(C)c(=O)n2C,-4.7%
COc1cc(OC)c(Nc2nc3ccccc3nc2-n2nc(C)cc2C)cc1Cl,2.7%
COc1cccc(-c2nc(CS(=O)(=O)CC(=O)N3CCN(c4cc(C)ccc4C)CC3)c(C)o2)c1,?
Cc1cccc(C(=O)Nc2ccc(C(=O)OCc3cc(=O)n4nc(CC(C)C)sc4n3)cc2)c1,?
Cc1nn(CC(=O)NCc2ccc(N(C)C)cc2)c(=O)c2c(C)n(-c3ccc(Cl)cc3)nc12,1.0%
Oc1c(C(c2ccc(F)cc2)N2CCCC2)sc2nc(-c3ccco3)nn12 (stereo unspecified),-1.0%
O=C(CSc1nccn1-c1ccc(F)cc1)Nc1cccc2ccccc12,-8.7%
Cc1ccc(OCC(=O)Nc2ccc3nc(SCC(=O)N4CCOCC4)sc3c2)cc1,-1.4%
CC(=O)c1ccc(NC(=O)CSc2nccn2Cc2ccco2)cc1,0.9%
CCOC(=O)c1ccccc1NC(=O)Cn1c(=O)n(-c2cccc(C)c2)c(=O)c2c1c1cc(C)ccc1n2C,3.6%
CCOC(=O)c1ccc2ncc(C(=O)OCC)c(Nc3ccc(C)c(Br)c3)c2c1,-0.2%
COc1ccc(OC)c(NC(=O)CN2C(=O)CCc3cc(S(=O)(=O)N4CCCCC4)ccc32)c1,-1.9%
CN1CCN(C(=O)c2ccc3c(c2)N(Cc2c(F)cccc2Cl)C(=O)c2ccccc2S3)CC1,-3.9%
Cc1ccccc1OCCCCn1c(C2CC(=O)N(c3ccccc3Cl)C2)nc2ccccc21 (stereo unspecified),?

# Part of the list above in order of count of non-hydrogen atoms, high to low:
SMILES,ClpP mod
COc1cc(OC)c(Nc2nc3ccccc3nc2-n2nc(C)cc2C)cc1Cl,2.7%
O=C(CSc1nccn1-c1ccc(F)cc1)Nc1cccc2ccccc12,-8.7%
CC(=O)c1ccc(NC(=O)CSc2nccn2Cc2ccco2)cc1,0.9%

# Later entries
SMILES,ClpP mod
CCC(C)NC(=O)c1ccc(-n2c(-c3ccccc3)cc3c2CCCC3)cc1 (stereo unspecified),-5.2%
CCc1nc2c(cnn2-c2ccc(C)cc2)c(=O)n1-c1ccc(C)cc1,0.6%
CCOC(=O)c1ccccc1NC(=O)c1nn(-c2ccc(OC)c(Cl)c2)c(=O)c2c1c1ccccc1n2C,-1.0%
N#Cc1cccc(S(=O)(=O)N2CCN(c3nc(-c4cccs4)nc4ccccc34)CC2)c1,4.6%

# Only part of the results is shown; the hit share may differ from the screen's.
